MgrA-DNA mod – alters Staphylococcus aureus MgrA binding to DNA; fluorescence polarization; inhibition, %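 (about 10 µg/mL by stock and volumes)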; 84,000 compounds, 0.13% hits; AID 602314;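 active = above 50% in either of two replicates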;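 also: 0% = protein plus DNA without compound and 100% = DNA alone without protein; higher means less MgrA bound to DNA so lower polarization; one replicate is shown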
Sa helicase inh – S. aureus DNA helicase inhibition; 120,000 compounds, 0.05% hits; inhibition, %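 (tested at about 80 µM)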; purified S. aureus helicase, fluorescence unwinding assay; about half of the hits fall short of the stated cut;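 active = both duplicates at 50% or more, or one of them with a favoured structure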;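 also: 0% = mean of negative control wells and 100% = mean of positive control wells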
Active calls of the source: *; · = not tested or not shown.

SMILES | MgrA-DNA mod | Sa helicase inh
Cc1nnc(N2CCCC(C(=O)NCCN3CCOCC3)C2)c2nn(-c3ccc(Cl)cc3)c(C)c12 (stereo not given) | · | -2
O=C(N/N=C1\CCc2ccccc21)c1cccs1 | · | 9
COc1cc2sc(=NC(=O)c3cccc(OC)c3OC)n(C)c2cc1OC | · | -15
CCN(C(=O)c1cccc(S(=O)(=O)N2CCCCC2)c1)C1CCS(=O)(=O)C1 (stereo not given) | · | 7
Cc1nc(SC(C)C(=O)Nc2c(C)n(C)n(-c3ccccc3)c2=O)nc(C)c1C (stereo not given) | · | 4
COC(=O)c1cc(S(=O)(=O)C(C)C)c(SC)s1 | 0.0 | ·
COc1ccccc1Oc1ncnc2sc(-c3ccccc3)cc12 | · | -11
CCN(CC)CC(=O)Oc1ccc(NC2=NS(=O)(=O)c3ccccc32)cc1 | 1.1 | 12
CC1(C)[C@@H](OC(=O)CCC(=O)O)CC[C@]2(C)[C@H]3C(=O)C=C4[C@@H]5C[C@@](C)(C(=O)O)CC[C@]5(C)CC[C@@]4(C)[C@]3(C)CC[C@@H]12 | 1.0 | ·
CCC(=O)Nc1ccc2c(C)cc(C)nc2n1 | 0.7 | 14
C=CCn1c(NC(C)=O)c(C#N)c2nc3ccccc3nc21 | -2.9 | -82
COc1cccc(-c2nn(-c3cc(C(F)(F)F)ccn3)c(=O)o2)c1 | · | -10
NC(=O)c1ccc[n+](CC(=O)N2CCOCC2)c1 | · | 24
OC(c1cccnc1)c1cccs1 (stereo not given) | -2.2 | 9
O=c1[nH]cnc2sccc12 | · | -2
COCc1cc(C)nc(SCC(=O)Nc2nnc(C(F)(F)F)s2)c1C#N | 5.2 | -10
Cc1cc(C(=O)COC(=O)C2CC2)c(C)n1-c1ccc(F)cc1 | · | 9
Cc1noc(C)c1CSc1ncnc2sc3c(c12)CCC3 | · | 9
COc1ccc(/C=C2\CN(C)C/C(=C\c3ccc(OC)cc3)C2=O)cc1 | -1.9 | ·
O=C(NCC(=O)N1CCCCCC1)c1cccs1 | 0.6 | -6
CCOc1ccc(-c2n[nH]c(=S)n2CC)cc1 | · | 22
Cc1cc(C(=O)ONC(=O)c2ccco2)nn1-c1cc(Cl)ccc1Cl | · | -13
NC(=O)c1cc(S(=O)(=O)NC2CCCc3ccccc32)cs1 (stereo not given) | · | -18
O=C(Cc1ccccc1)NN(c1ccccc1)c1ccccc1 | -3.6 | 11
CCN(CC)c1ccc(C(=S)N2CCN(CCO)CC2)cc1 | 6.2 | 5
O=C(NCCCN1CCOCC1)c1cc2sc3ccccc3c2s1 | · | -13
O=c1cc(-c2ccccc2)[nH]n1-c1nc2ccccc2[nH]1 | · | 17
NC(=O)c1cccc(CNC(=O)c2ccccc2C(N)=O)c1 | · | 9
CCN1C(=O)c2cccc3c(NC(=O)c4cccc(OC)c4)ccc1c23 | · | 11
Nn1c(SCc2cccc(Br)c2)nnc1-c1ccccc1 | -1.8 | 7
O=C(CCc1nc2ccccc2c(=O)[nH]1)Nc1ccc(F)cc1 | · | 12
CC(c1ccccc1)N1C(=O)c2ccccc2C1Nc1ccc(F)cc1 (stereo not given) | 0.1 | 3
CC1CN(C(=O)COC(=O)/C=C/c2ccc(C(F)(F)F)cc2)CC(C)O1 (stereo not given) | · | -15
COc1cc2c(cc1OC)CC(=O)OC2 | -0.8 | ·
FC(F)(F)c1cc(Cl)nc(-c2ccccc2)n1 | -3.5 | 16
O/N=C\c1cn(-c2ccccc2)nc1-c1ccc(Br)cc1 | 2.0 | -3
NC(=O)COC(=O)c1ccc(Cl)c(S(=O)(=O)N2CCCCCC2)c1 | · | 16
O=C(/C=C\c1ccccc1)Nc1nnc(-c2ccc(Cl)cc2)s1 | · | 11
COc1cccc(C2C(C#N)=C3N=C(N)c4ccccc4N3C3=C2C(=O)CCC3)c1 (stereo not given) | · | 3
O=C(CSc1nnc(C2CC2)n1Cc1ccco1)c1ccc2[nH]c(=O)oc2c1 | · | -2
CC1=Nc2ccccc2N=C(NC(=O)CSC(=S)N2CCCCC2)C1c1ccccc1 (stereo not given) | -1.2 | 10
CSc1ccc(C(=O)Nc2nnc(C3=COCCO3)o2)cc1 | · | 14
COc1cc2c(cc1OC)C(C)N(C(=O)c1cc3c(C)cc(C)cc3[nH]1)CC2 (stereo not given) | 2.6 | ·
O=c1cc(-c2ccc(F)cc2)[nH]n1-c1nc2ccccc2[nH]1 | 5.6 | 20
CC1SC2=NNC(c3ccc(Cl)cc3)=CN2C1=O (stereo not given) | 0.5 | -4
Cc1nc2c(-c3ccccc3)c(C)nn2c(C)c1CC(=O)NCCN1CCOCC1 | · | 7
Cc1cc(C)n(CCCNCc2ccc(OCc3csc(C)n3)cc2)n1 | · | -16
COC(=O)c1ccccc1N=C(C)C1=C(O)c2ccccc2C1=O | 0.0 | 21
O=C(NCc1ccccc1)NCc1ccccc1 | 0.1 | -12
Cc1ccc(F)cc1NC(=O)/C=C\C(=O)O | · | -15
CC(=O)NC(Cc1c[nH]c2ccccc12)C(=O)OCc1nc(N)nc(Nc2ccccc2C)n1 (stereo not given) | · | 13
CN(C(=S)NC(=O)C1CC1)c1ccccc1 | · | 1
NC(=Nc1ccc(Cl)cc1)c1ccccc1 | -0.9 | 17
COc1cccc(NC(=O)NCc2c(-c3ccccc3)noc2C)c1 | · | -1
COc1cc(OC)c(CN2CCN(c3ccccc3C)CC2)cc1Br | -0.8 | -5
O=C(O)COc1cccc(Br)c1 | -1.2 | -9
COc1ccc(/C=C/C(=O)N2CCN=C2c2ccccc2)cc1OC | 0.8 | 4
Cc1oc2ccccc2c1CC(=O)Nc1ccc(C(F)(F)F)cc1 | · | -15
CC(C)NC(=S)Nc1ccc2[nH]c(=O)[nH]c2c1 | · | 11
CC(C)(C)c1ccc(/C=N/n2cnnc2)cc1 | 7.0 | -12
Next entries.
SMILES | MgrA-DNA mod | Sa helicase inh
NNc1nnc(-c2ccccc2)c2ccccc12 | -3.8 | -1
O=c1c2ccccc2nc2c3ccccc3c(N3CCOCC3)nn12 | 2.6 | 9
O=C(Nc1cc(C(F)(F)F)ccc1Cl)C1=COCCO1 | · | 0
N#C/C(=C\Nc1nccs1)S(=O)(=O)c1ccc(Cl)cc1 | 0.8 | ·
CNCc1ccc(SC)cc1 | · | 7
Cc1c(Cl)cccc1NC(=S)N(C1CCCCC1)C(C)c1cccnc1 (stereo not given) | 0.0 | 5
CN1N=C2c3ccccc3CCCC2C1c1ccc2c(c1)OCO2 (stereo not given) | 2.2 | ·
COc1cccc(NC(=O)c2ccc(S(=O)(=O)N3CCCC3)cc2)c1 | · | -4
CCCN(CCC)C(=O)Cn1c(=O)n(Cc2ccc(C(=O)NCc3ccco3)cc2)c(=O)c2ccccc21 | · | -34
O=C(NCc1ccncc1)c1cccc(Oc2ccccc2)c1 | -4.5 | 0
C(=N\c1ncn[nH]1)/c1cccs1 | · | 13
O=C1/C(=C/c2ccc(O)cc2)CS(=O)(=O)c2ccccc21 | · | 6
CCCN(CCC)C(=O)Cn1c(=O)n(CCCCC(=O)NC2CCCC2)c(=O)c2ccccc21 | · | -4
CC(=O)N1CCC(N(CCN2CCOCC2)C(=O)Nc2ccccc2)CC1 | 0.2 | 6
OCCNc1nc2ccccc2n1Cc1ccccc1Cl | · | -8
CCC(C(=O)OC(C)C)n1cnc2sc3c(c2c1=O)CCC(C)C3 (stereo not given) | -2.3 | 5
Cc1[nH]c2ccc(C(=O)Oc3ccc4c(c3)OCO4)cc2c1C | · | -9
Cc1c(S(=O)(=O)c2ccc(Cl)cc2)csc1C(=O)N(Cc1ccccc1)Cc1cccnc1 | 0.8 | ·
O=C(NCCO)c1c2c(nc3ccccc13)CCCC2 | -6.8 | 14
O=C(CSC(=O)c1c(Cl)cccc1Cl)Nc1cc(C(F)(F)F)cc(C(F)(F)F)c1 | 2.0 | ·
CCOC(=O)c1c(-c2ccccc2)csc1/N=C/C1C(=O)CCCC1=O | 1.8 | 4
Cc1ccc(-c2ccc(NC(=O)C3C4C=CC(C4)C3C(=O)O)cc2)o1 (stereo not given) | · | -7
CSc1ncc2c(=O)n(CC3CCCO3)ccc2n1 (stereo not given) | · | 5
CCOC(=O)c1c(NC(=O)c2sc3ccccc3c2Cl)sc2c1CCC(C)C2 (stereo not given) | 2.7 | ·
CC(=O)NC(=O)NCc1ccccc1 | 1.9 | ·
O=C(/C=C/c1ccco1)Nc1ccc(Nc2ccccc2)cc1 | · | 0
O=C(Nc1ccccc1)N1CCc2ccccc21 | 0.8 | 2
CC(C)(C)c1cc(-c2cccs2)c(C#N)c(SCC(=O)Oc2ccccc2)n1 | -0.3 | 3
O=C(O)C1CCc2ccccc2O1 (stereo not given) | -3.0 | ·
COc1ccccc1N1CCN(CC(C)N(C(=O)C2CCCCC2)c2ccccn2)CC1 (stereo not given) | 3.1 | ·
CC(C(=O)N1CCc2ccccc21)N1CCN(S(=O)(=O)c2ccc(Cl)cc2)CC1 (stereo not given) | · | 17
O=C(CNC(=O)c1ccc(-c2ccccc2)cc1)OC1CCOC1=O (stereo not given) | · | 0
O=C1CN(Cc2nc3ccc(Cl)cc3n2CCO)c2ccccc2N1 | · | -7
CC(C)CCNC(=O)c1ccc(CS(=O)(=O)c2cccc(C(F)(F)F)c2)o1 | 4.7 | 13
COCCn1c(C)cc(C(=O)COC(=O)c2ccc(NC(=O)CC#N)cc2)c1C | · | 2
CC(C)(C)P(=NC(=S)N1CCCCCC1)(N1CCOCC1)N1CCOCC1 | · | 11
O=S(=O)(CCN1CCC(n2cccc2)CC1)c1ccc(F)cc1 | -0.6 | ·
COc1ccc(C2C3=C(CCCC3=O)Nc3n[nH]c(-c4ccccc4)c32)cc1 (stereo not given) | · | -23
Cn1nc(CC(=O)Nc2nncs2)c2ccccc2c1=O | -1.2 | 3
Cc1cc(C(=O)NC2CCC(O)CC2)c(C)o1 (stereo not given) | · | -4

2 entries from above, as a markdown table.
| Compound | MgrA-DNA mod | Sa helicase inh |
| --- | --- | --- |
| O=C(Nc1ccccc1)N1CCc2ccccc21 | 0.8 | 2 |
| CC(C)(C)c1cc(-c2cccs2)c(C#N)c(SCC(=O)Oc2ccccc2)n1 | -0.3 | 3 |

Next section:
SMILES | MgrA-DNA mod | Sa helicase inh
CSc1nc(C=Nc2ccc(C)cc2)ccc1C#N | -2.4 | ·
Clc1cccc(CSc2nnc3ccccn23)c1 | 0.8 | 11
CCOC(=O)c1ccc(N2C(=O)C3CCC(C)CC3C2=O)cc1 (stereo not given) | 0.4 | ·
CC1(C)Cc2cccc(C(=O)Nc3cccnc3)c2O1 | -3.2 | ·
CC(C)(C)NC(=O)c1cccc(NC(=O)Cc2cccs2)c1 | -2.6 | -4
Cc1n[nH]c(C)c1S(=O)(=O)N1CCC2(CC1)OCCO2 | 4.9 | 11
CC(C)(C)c1ccc(C(=O)NCCC(=O)Nc2nn3cnnc3s2)cc1 | · | -12
NS(=O)(=O)c1ccc(CCNC(=O)c2ccncc2)cc1 | · | 12
CCCN(CCC)C(=O)Cn1ncc2c(=O)oc3ccccc3c21 | · | -4
O=P(O)(CN1CCCCCC1)C1Cc2ccccc2C1 | 1.9 | 3
CCSc1nnc(C2CCN(CC(=O)Nc3ccc(N4CCCCCC4)cc3)CC2)n1C | -1.4 | 1
O=C(CCc1ccsc1)Nc1nc2ccccc2[nH]1 | · | -12
O=C(CCNc1n[nH]c(=O)[nH]c1=O)NCc1ccco1 | 0.9 | -4
OC1(CCC2(O)CCCC2)CCCC1 | 7.1 | -6
CCn1c(C(=O)N2CCCC(C(=O)NCCCc3ccccc3)C2)cc2sccc21 (stereo not given) | 2.5 | 16
O=C(CSc1nnnn1-c1ccccc1)N(C1CCCCC1)C1CCCCC1 | -0.4 | 4
NS(=O)(=O)c1ccccc1C(=O)N1CCN(C(=O)c2ccccc2S(N)(=O)=O)CC1 | -3.7 | 10
FC(F)(F)c1ccncc1-c1nc(-c2cc(Cl)cc(Cl)c2)no1 | -3.2 | ·
NC(=O)NCCc1ccccc1 | 2.1 | ·
CC(C)(C)C(=O)COC(=O)c1ccc(S(=O)(=O)N2CCOCC2)cc1 | · | -8
CN1C(=O)NC(c2ccc(Cl)cc2)C2=C1CC(C)(C)CC2=O (stereo not given) | · | -17
O=C(CN1CCOCC1)N(C1CCCCC1)C1CCS(=O)(=O)C1 (stereo not given) | · | 8
Cc1ccc(SCC2=NN(c3nc(C)cc(C)n3)C(=O)C2)cc1 | · | -16
COc1ccc(Cl)cc1NC(=O)c1cc2c(CO)cnc(C)c2oc1=N | · | 7
CC(C)(C)NC(=O)CSc1nc2ccccc2n1-c1ccccc1 | -6.5 | 10
CCN(Cc1ccccc1)C(=O)CSc1nnc(C)c(=O)n1N | · | 8
CC(=O)N(c1nc(-c2cc3ccccc3oc2=O)cs1)c1cccc(C)c1C | 0.1 | 9
CCCNC(=O)C1CCN(S(C)(=O)=O)CC1 | 1.0 | -1

Of the compounds above, these have an NH in an aromatic ring.
SMILES | MgrA-DNA mod | Sa helicase inh
O=c1[nH]cnc2sccc12 | · | -2
CCOc1ccc(-c2n[nH]c(=S)n2CC)cc1 | · | 22
O=c1cc(-c2ccccc2)[nH]n1-c1nc2ccccc2[nH]1 | · | 17
O=C(CCc1nc2ccccc2c(=O)[nH]1)Nc1ccc(F)cc1 | · | 12
O=C(CSc1nnc(C2CC2)n1Cc1ccco1)c1ccc2[nH]c(=O)oc2c1 | · | -2
COc1cc2c(cc1OC)C(C)N(C(=O)c1cc3c(C)cc(C)cc3[nH]1)CC2 (stereo not given) | 2.6 | ·
O=c1cc(-c2ccc(F)cc2)[nH]n1-c1nc2ccccc2[nH]1 | 5.6 | 20
CC(=O)NC(Cc1c[nH]c2ccccc12)C(=O)OCc1nc(N)nc(Nc2ccccc2C)n1 (stereo not given) | · | 13
CC(C)NC(=S)Nc1ccc2[nH]c(=O)[nH]c2c1 | · | 11
C(=N\c1ncn[nH]1)/c1cccs1 | · | 13
Cc1[nH]c2ccc(C(=O)Oc3ccc4c(c3)OCO4)cc2c1C | · | -9
COc1ccc(C2C3=C(CCCC3=O)Nc3n[nH]c(-c4ccccc4)c32)cc1 (stereo not given) | · | -23
Cc1n[nH]c(C)c1S(=O)(=O)N1CCC2(CC1)OCCO2 | 4.9 | 11
O=C(CCc1ccsc1)Nc1nc2ccccc2[nH]1 | · | -12
O=C(CCNc1n[nH]c(=O)[nH]c1=O)NCc1ccco1 | 0.9 | -4

Not all compounds are listed, so the mix of outcomes need not match the whole.
